# VDR inhibitor: Inhibitors of the vitamin D receptor (VDR): qHTS | VDR-SRC2-3 peptide fluorescence polarization, 2 h | AID 504847, 2011 | hit rate 0.93% among 400,000 | Vitamin D3 receptor (Homo sapiens), P11473 | Potency, µM, without a hit: max response, negative = inhibition, usual class: inhibitors; active = well fitted inhibition curve with a large enough effect; inconclusive = small, poorly fitted or top-dose-only effect, or another doubt; inactive = no such curve, though single readings can be large or run the other way; also: series mostly up to about 120 µM
# Target sequence (P11473 whole entry, looked up): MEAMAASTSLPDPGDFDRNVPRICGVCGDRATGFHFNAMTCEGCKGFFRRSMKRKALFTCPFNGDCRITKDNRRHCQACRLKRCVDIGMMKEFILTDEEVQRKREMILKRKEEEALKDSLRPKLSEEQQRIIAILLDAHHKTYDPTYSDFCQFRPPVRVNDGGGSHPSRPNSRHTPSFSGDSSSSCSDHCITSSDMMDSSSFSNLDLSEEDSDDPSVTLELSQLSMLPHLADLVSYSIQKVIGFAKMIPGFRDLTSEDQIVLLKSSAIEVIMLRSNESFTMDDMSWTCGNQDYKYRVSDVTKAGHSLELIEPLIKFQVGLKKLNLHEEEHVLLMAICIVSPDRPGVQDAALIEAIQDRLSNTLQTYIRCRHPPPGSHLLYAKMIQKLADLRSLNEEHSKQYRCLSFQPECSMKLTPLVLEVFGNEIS
#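 FP read-out; VDR + SRC2-3 coactivator peptide; 23 nl compound by pintool; 2 h RT incubation; reagents held at 4 deg C, protected from light.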
# * hit, by the source's call; ? = inconclusive; & = joins results of further samples. % is scaled to controls: 0 for no effect and ±100 for the full control effect; potency is read from the fitted curve at half-maximal effect. The list is partial, so the mix of outcomes need not match the whole.
no. | compound | VDR inhibitor
1 | COCCn1c(SCC(=O)c2[nH]c(C)c(C(C)=O)c2C)nc2ccccc2c1=O | -11.0%
2 | CCOC(=O)C1(Cc2ccccc2C)CCCN(C(=O)CCc2c(C)noc2C)C1 (configuration not stated) | -6.1%
3 | N#CCC(=O)Nc1ccc(C(=O)NNC(=S)NC2CCCCC2)cc1 | -20.2%
4 | O=C(Cc1ccccc1)N1CCN=C1SCc1ccc([N+](=O)[O-])cc1 | 5.2%
5 | Cc1ccc(C)c(N2CCN(C(=O)C34CC5CC(C3)CC(n3nnc(C)n3)(C5)C4)CC2)c1 | -14.8%
6 | CCn1c(/C=C/c2ccc(O)c(O)c2)nc2ccccc2c1=O | -25.6%
7 | CCN(CC)CCCN1CC(O)=C(c2nc3ccccc3s2)C1=N | 3.5%
8 | COc1ccc(CNc2ccc3c(c2)nc(C)n3C)cc1 | -5.9%
9 | COc1ccccc1N(C)S(=O)(=O)c1ccc(C(=O)NCc2ccc3c(c2)OCO3)cc1 | 5.8%
10 | N#C/C(=C\C=C\c1ccccc1)c1nc(-c2ccc3c(c2)OCO3)cs1 | -0.7%
11 | Cc1ccc(N2C3=C(C(=O)CC(C)(C)C3)C(c3cn(C)nc3C)C3=C2CC(C)(C)CC3=O)cc1 | 20µM*
12 | COc1ccc(OCC(=O)N/N=C(\CCC(=O)O)c2cccs2)cc1 | 6.1%
13 | CCOC(=O)c1c(C)[nH]c(C)c1C(=O)COC(=O)c1ccc([N+](=O)[O-])s1 | -18.6%
14 | Cc1nn(CCC(=O)N2CCN(c3ccccc3)CC2)c(C)c1S(=O)(=O)N1CCCC1 | 7.1%
15 | CCOC(=O)N1CCN(c2c(NCCN3CCN(Cc4ccccc4)CC3)c(=O)c2=O)CC1 | 4.5%
16 | Cn1ncc2cc(NC(=S)NC(=O)c3ccccc3)ccc21 | -2.9%
17 | CC(C)Oc1ccc(N2CC(C(=O)Nc3ccccn3)CC2=O)cc1 (configuration not stated) | -12.6%
18 | Clc1ccc(-c2nnc3sc(-c4ccc(Br)o4)nn23)c(Cl)c1 | 4.4%
19 | C=CCNC(=O)c1ccc(OC)cc1 | -25.8%
20 | Clc1ccc(C2[C@H]3CN(Cc4cccnc4)[C@H](c4ccccc4)C34CC2(c2cccnc2)C4)cn1 (some centres not stated) | -3.1%
21 | CC(C)c1ccc(NC(=O)CC2NCCNC2=O)cc1 (configuration not stated) | -4.8%
22 | CC(=O)N1CCN(S(=O)(=O)c2cccc(C(=O)Nc3nc4ccccc4[nH]3)c2)CC1 | -2.4%
23 | CCCNC(=O)N1c2ccccc2Sc2ccccc21 | 11.5%
24 | CCOC(=O)CN1C(=O)C2Cc3ccccc3CN2C1=S (configuration not stated) | 6.8%
25 | O=c1oc(-c2ccccc2Cl)nc2ccsc12 | -15.1%
26 | CC1CCN(c2csc3ccc(F)cc3c2=O)CC1 | 14.2%
27 | CCOC(=O)CC(C#N)c1cn(C)c2ccccc12 (configuration not stated) | -7.8%
28 | CCN(c1ccccc1)S(=O)(=O)c1ccc(C(=O)OC(C)C(=O)NCCC2=CCCCC2)cc1 (configuration not stated) | -5.5%
29 | COc1cc2cnc(-c3ccccc3)c(-c3ccc(C#N)cc3)c2cc1OC | -9.9%
30 | CC1CC(C)CN(C(=O)c2cc3cc(Br)cc(Br)c3o2)C1 (configuration not stated) | -19.7%
31 | COc1ccc(C(=O)CCN2CCc3cc(OC)c(OC)cc3C2)cc1 | ?
32 | Oc1ccc2ccccc2c1/C=N/c1nc2c(s1)CCCC2 | 3.8%
33 | COc1ccc(/C=C/C(=O)O)cc1S(=O)(=O)N1CCc2ccccc21 | -21.2%
34 | COc1ccc(Cl)cc1C(=O)NCc1nc(-c2cccc(C)c2)no1 | 6.3%
35 | O=C(NC1CCCCCC1)c1ccc(CS(=O)Cc2cccc(Cl)c2)o1 (configuration not stated) | 14.7%
36 | COc1ccc(N(CC(=O)N/N=C/c2ccc(-c3ccc([N+](=O)[O-])cc3)o2)S(=O)(=O)c2ccc(C)cc2)cc1 | -4.7%
37 | COC(=O)c1ccc(C2C(C(=O)OCC(C)C)=C(C)N=C3SCCC(=O)N32)cc1 (configuration not stated) | -2.2%
38 | Cc1oc2ncn(CC(C)C)c(=O)c2c1C(=O)Nc1cc(F)ccc1F | 4.8%
39 | CCN1CCN(c2cc(C)c3cc(NC(=O)c4cccs4)ccc3n2)CC1 | 0.6%
40 | O=C(CN(C(=O)c1csnn1)c1cccc2c1CCCC2)NC1CCCC1 | 4.7%
41 | Cc1ccc(S(=O)(=O)N(CC(=O)Nc2c(C)cccc2C)c2cccc(Cl)c2)cc1 | 5.5%
42 | O=S(=O)(c1ccccc1F)N1CCC(Oc2ccc(-n3cnnn3)cc2)CC1 | -11.0%&1.1%
43 | CCOC(=O)c1[nH]c(CSc2nnnn2-c2ccccc2C)c(C(=O)OCC)c1C | -12.4%
44 | FC(F)(F)COc1ccc(-c2nnc(SCc3c(Cl)cccc3Cl)o2)cn1 | -4.0%
45 | CC(=O)CSc1nnc(-c2ccco2)n1-c1ccccc1 | -19.1%
46 | Cc1ccc(C(=O)Nc2cccc(-c3nc4cccnc4s3)c2C)cc1 | -4.3%
47 | O=C(NCc1ccc(F)cc1)c1cc(-c2ccc(Cl)cc2)n[nH]1 | 3.9%
48 | COc1ccc(OC(=O)c2ccncc2)cc1 | 3.0%
49 | COc1ccc2c(CC(=O)NNC(=O)c3cccs3)coc2c1 | -0.3%
50 | CCCC1(c2ccccc2)NC(=O)NC1=O (configuration not stated) | -1.3%
51 | O=C(Nc1cc([N+](=O)[O-])ccc1Cl)C1CC1 | -8.7%
52 | COc1ccc(CNC(=O)COC(=O)/C=C/c2cccc(Br)c2)cc1OC | 12.6%
53 | Cc1ccc(-n2c(CNc3cccc(Cl)c3)n[nH]c2=S)cc1 | -8.5%
54 | CCC(C)(C)n1nnnc1CN(Cc1cc2cc(OC)c(OC)cc2[nH]c1=O)C1CCCC1 | 0.2%
55 | CN1C(=O)C2(c3ccccc31)N(C)CC(c1ccccn1)C21SC(=S)N(Cc2ccco2)C1=O (configuration not stated) | 2.7%
56 | O=C(Nc1c(C(=O)N2CCN(c3ccc(F)cc3)CC2)oc2ccccc12)c1c(F)cccc1F | 3.6%
57 | CCOc1ccc2[nH]c(=O)c(CN(Cc3ccccc3OC)C(=O)c3ccccc3)cc2c1 | 4.7%
58 | CCCNC(=O)c1cnc2c(-c3ccc(OCC)c(OCC)c3)c(C)nn2c1-c1ccccc1 | 9.3%
59 | COc1ccc(C(=O)Nc2ccc(-c3nnn(CC(=O)N4CCN(C(=O)c5ccco5)CC4)n3)cc2)cc1 | -5.3%
60 | Cc1ccc(CCNC(=O)NC(C)(C)C)cc1 | 6.0%

# (more compounds)
no. | compound | VDR inhibitor
61 | Cc1ccc(N=C2SC(C(=O)NCCc3ccccc3)CC(=O)N2C)cc1C (configuration not stated) | 14.3%
62 | COC(=O)c1cc(NC(=O)c2ccc3c(c2)NC(=O)c2ccccc2S3)cc(C(=O)OC)c1 | 2.4%
63 | CN1CCN(C(=S)c2cn(Cc3ccc(Br)cc3)c3ccccc23)CC1 | -18.9%
64 | O=C(CSc1nnc(-c2ccncc2)n1Cc1ccco1)OC1CCCCC1 | -19.9%
65 | CC1Cc2ccccc2N1C(=O)CN1CCN(Cc2ccccc2)CC1 (configuration not stated) | -4.6%
66 | Cc1cc(CNC(=O)COC(=O)Cn2[nH]c(=O)c3ccccc3c2=O)cc(C)c1O | -7.6%
67 | CCOC(=O)c1ccccc1NC(=O)COc1coc(CN2CCc3ccccc32)cc1=O | 6.5%
68 | NC(=O)C1(N2CCCCC2)CCN(c2ccc3nnc(-c4ccccc4)n3n2)CC1 | -6.2%
69 | O=C(COC(=O)CN1C(=O)NC2(CCCC2)C1=O)Nc1c(Cl)cccc1C(F)(F)F | -9.4%
70 | COc1ccc(CCNC(=O)CCS(=O)(=O)c2ccc3c(c2)NC(=O)C(C)S3)cc1OC (configuration not stated) | 12.5%
71 | COCCNC(=O)CSc1c2c(nc3ccc(Cl)cc13)CCCC2 | ?
72 | O=C(/C=C/c1cc([N+](=O)[O-])ccc1OC(F)F)Nc1ccc(OC(F)F)cc1 | 19.0%
73 | Cc1cc(C(=O)CN2C(=O)C(=O)N(Cc3ccccc3)C2=O)c(C)n1Cc1ccc(F)cc1 | -2.6%
74 | COc1ccc(/C=C/C(=O)N2CCN(c3ccccn3)CC2)cc1OC | 11.2%
75 | Cc1cccc(N2CCN(C(=O)CC(NC(=O)c3ccccc3Cl)c3ccccc3)CC2)c1C (configuration not stated) | -13.1%
76 | O=C(Nc1nnc(SCc2ccc(Cl)cc2)s1)C1CCCO1 (configuration not stated) | -6.1%
77 | Cc1cc(C)nc(N2CCC(C(=O)NCc3ccccc3)CC2)n1 | -12.0%
78 | Cc1ccc(C)c(OCCn2nnc3ccccc32)c1 | -5.1%
79 | Clc1ccc(-c2noc(CCCc3ccccc3)n2)cc1 | -9.1%
80 | O=C(c1cccc(Cl)c1Cl)N(Cc1ccco1)Cc1cccs1 | 79.4µM*
81 | O=C1C[C@H](NC(=O)OCc2ccccc2)CO1 | 6.8%
82 | Cc1oc(C(C)(C)C)cc1C(=O)Nc1ccc(C(=O)O)cc1 | -8.7%
83 | Cc1cccc(Oc2ccc(NC(=O)C3=CC=CN4CCS(=O)(=O)N=C34)cc2)c1 | -0.6%
84 | COc1ccc(C(=O)Nc2ccc(Oc3nc(C)nc4sc(-c5ccccc5)cc34)cc2)cc1OC | -1.7%
85 | CCC(=O)Nc1cccc(C2=NOC3(C2)C[C@@H](C(N)=O)N(C(=O)c2ccc(OC)cc2)C3)c1 (some centres not stated) | -16.3%
86 | Cc1ccc(NC(=O)COC(=O)C(NS(=O)(=O)c2ccc(Cl)cc2)C(C)O)cc1 (configuration not stated) | -18.4%
87 | COCc1cc(C)nc(N2CCc3ccccc32)c1C#N | -15.0%
88 | CCOc1ccc(NC(=S)NNC(=O)CC(C)O)cc1 (configuration not stated) | -5.0%
89 | O=C1c2oc3ccccc3c(=O)c2C(c2cccnc2)N1CCCN1CCOCC1 (configuration not stated) | -1.8%
90 | CCN(CC)c1cc(Cl)c2nonc2c1N | -9.8%
91 | O=c1ccn([C@@H]2O[C@H](COP(=O)(O)O)[C@@H](O)[C@H]2O)c(=O)[nH]1 | -2.4%
92 | C=CCOc1ccc(C(=O)c2ccccc2)c(OCC(=O)NC2(C#N)CCCC2)c1 | 0.1%
93 | COc1ccc2c(c1)c(CC(=O)Nc1cc(C)c(OC)c(C)c1)c(C)n2C(=O)c1ccc(Cl)cc1 | -30.1%
94 | N#Cc1ccc(-c2ccc(F)cc2)nc1SCC(=O)Nc1sc2c(c1C#N)CCC2 | 10.6%
95 | CCOc1ccc(NC(=O)NC(C)c2ccc3c(c2)OCO3)cc1 (configuration not stated) | ?
96 | COc1ccc(OC)c(/C=N/NC(=O)CSc2nnc(C)n2-c2ccccc2)c1 | 1.6%
97 | CC1CC(=O)Nc2ccccc2N1C(=O)CN1CCN(C=O)CC1 (configuration not stated) | -9.4%
98 | COc1cc2[nH]c(=O)n(CCC(=O)N3CCc4ccccc4C3)c(=O)c2cc1OC | -8.5%
99 | CCCN(CCC)C(=O)c1oc2ccccc2c1NC(=O)Cc1cccc(OC)c1 | -3.5%
100 | CCOC(=O)c1c[nH]c(=S)n1C | -12.4%
101 | COc1ccc(N2CC(NC(=O)COc3ccc4ccccc4c3)CC2=O)cc1 (configuration not stated) | 9.6%
102 | O=C(O)CCCCCNC(=O)c1ccc(C(=O)NCCCCCC(=O)O)cc1 | 1.2%
103 | CC(=O)NC1=NC(=O)CS1 | -3.6%
104 | c1ccc(-n2ncc3c(NCCN4CCCCC4)ncnc32)cc1 | -6.3%
105 | Cc1c(/C=C(\C#N)c2nn(-c3ccccc3)c(N)c2C#N)c2ccccc2n1Cc1ccc(F)cc1 | -4.3%
106 | Cc1ccc(OCCCCn2c(-c3ccc(Cl)cc3)nc3ccccc3c2=O)cc1 | -11.4%
107 | CC(C(=O)NNS(=O)(=O)c1cccc(C(F)(F)F)c1)n1nnc(N2CCOCC2)n1 (configuration not stated) | 7.1%
108 | CCOc1cc(/C=C2/SC(=S)N(Cc3ccccc3)C2=O)ccc1O | 5.8%
109 | CC(=O)c1ccc(NC(=O)CSc2nnc3ccc(-c4ccccn4)nn23)cc1 | 5.0%
110 | Cc1cc2ccccn2c1C(=O)c1nc(N2CCOCC2)ncc1Cl | 3.8%
111 | Cc1ccc(NC(=O)/C=C/c2ccc(Cl)cc2)c(Br)c1 | -11.8%
112 | CC(C)CC(=O)N=Nc1c(O)[nH]c2ccccc12 | 23.2%
113 | Cc1cc(C)c(S(=O)(=O)N2CCCCC2CCNC(=O)C(=O)NCc2cccnc2)c(C)c1 (configuration not stated) | -5.3%
114 | COc1cc(NC(=O)c2cc(C(C)C)on2)c(OC)cc1Cl | -19.5%
115 | CC(=O)Nc1cc2c(cc1C(C)=O)OCCO2 | 3.4%
116 | O=C(O)c1ccc(/C=N/Nc2ncc(Cl)cc2Cl)cc1 | 12.1%
117 | CCC1=[N+](C)CCn2c(C)ccc21 | 11.1%
118 | CCOC(=O)NC(=S)Nc1ccc(OC)cc1 | -1.9%
119 | COc1ccc(C(=O)Nc2onc3c2CCCC3)cc1 | 2.3%

# Assay outcomes from PubChem.
